Compound activity from PubChem.
Vaccinia mCherry: vaccinia inhibition (mCherry reporter). actives 0.63% (n = 310,000). Potency, µM (series often up to 36.5 µM), without a hit: at the highest dose activity change, negative = inhibition, hits mostly inhibitors. Vaccinia virus mCherry reporter infection, fluorescence; about a quarter of the inactives have no number; active = well fitted inhibition curve with a large enough effect; inconclusive = small, poorly fitted or top-dose-only effect; inactive = no such curve, though single readings can be large or run the other way; tested in A549 cells; further: nearly all actives have a fitted effect of over 35% in size; inactives centre near -10
VACV Venus inh: inhibitors of vaccinia virus (Venus reporter). Vaccinia virus Venus reporter expression, fluorescence. Potency, µM (series often up to 36.5 µM), for inactives: at the top dose activity change, negative = inhibition, hits mostly inhibitors. AID 720580. actives 0.46% (n = 330,000); active means well fitted inhibition curve with a large enough effect; inconclusive means small, poorly fitted or top-dose-only effect; inactive means no such curve, though single readings can be large or run the other way; tested in A549 cells; further: nearly all actives have a fitted effect of over 30% in size; inactives centre near -10
* hit, by the source's call; i = inactive; ? = inconclusive; . = not tested or not shown; & = joins results of further samples; [ ] = remark or other dose. On the % scale 0 is the no-effect control and ±100 the full control effect; potency means the concentration at half of the fitted maximal effect.

mol	Vaccinia mCherry	VACV Venus inh
NC(N)=Nc1nc2ccc(Br)cc2c(=O)[nH]1	-5%	-6%
COc1ccc(CCNC(=O)c2cc3ccccn3n2)c(OC)c1OC	i	-13%
COCCNc1ncnc2c1cnn2-c1ccc(Cl)cc1	-30%	-21%
CC12CCC(C(=O)NCCCn3ccnc3)(OC1=O)C2(C)C (centres undefined)	-9%	-8%
O=C(Cc1ccccc1)Nn1c(O)c(/C=C2\C=Nc3ccccc32)sc1=S	47%[activator]	8%
O=C(CN1c2ccccc2S(=O)(=O)c2ccccc21)Nc1ccccc1Cl	-6%	-4%
CC(C)(C)S(=O)N1Cc2cc(C(=O)N3CCc4ccccc4C3)nc(-c3cccc(-c4cccnc4)c3)c2[C@@H]1CCO (some centres undefined)	40%[activator]	4%
CCc1ccc(S(=O)(=O)Nc2ccc3c(c2)sc(=O)n3C)cc1	-13%[7.34 µM]	-14%[7.34 µM]
O=C(c1ccc(Br)o1)N1CCN(c2ccc3nnc(-c4ccc(F)cc4)n3n2)CC1	-8%	-1%
Nc1nc(-c2ccccn2)nc(N)c1Cc1ccc(Cl)cc1Cl	?	-17%

New compounds follow
mol	Vaccinia mCherry	VACV Venus inh
COc1cc(C(=O)Nc2sc3c(c2C(=O)NCc2ccco2)CCCC3)cc(OC)c1OC	-18%	-12%
COc1cc(C(=O)Nn2c(CC(C)C)nc3ccccc3c2=O)cc(OC)c1OC	i	-12%
Cc1ccc(S(=O)(=O)c2nc(-c3cccc(C)c3)oc2N2CCCCC2)cc1	i	-3%
Cc1ccccc1Nc1c(-c2ccc(Cl)s2)nc2ccccn12	-2%	-14%
COc1ccc(NC(=O)c2cc(S(=O)(=O)N3CCOCC3)ccc2C)cc1S(=O)(=O)N1CCOCC1	-14%	2%
CSCCC(NS(=O)(=O)c1ccc2ccccc2c1)C(=O)O (centres undefined)	-12%	-2%
CC(=O)NS(=O)(=O)c1ccc(NC(=O)/C=C/c2ccco2)cc1	i	-4%
C=CCNC(=O)N1CCC(CO)(Cc2ccc(Cl)cc2)CC1	i	-16%
O=C(Cc1ccc(Br)cc1)Nc1cccc(Cl)c1	i	-12%
COc1ccc2c(CC(=O)NCCN3C(=O)S/C(=C\c4cccnc4)C3=O)coc2c1	i	-11%

Next compounds.
mol	Vaccinia mCherry	VACV Venus inh
CC1=C(C(=O)Nc2ccc(Br)cc2)C(c2ccco2)NC(=O)N1 (centres undefined)	i	-3%
CCC(=O)c1cn(/C(=C\C(=O)OC(C)(C)C)CCC(OC)OC)cc1CC	i	-6%
CC1CCCCN1C(=O)CN1C(=O)CN(C)C(=O)c2ccccc21 (centres undefined)	-14%	-5%
CCn1c(SCC(=O)NC2CCCC2)nnc1C(C)C	-22%	-5%
Cc1cc(C)c(OCCOCCN2CCNCC2)c(C)c1	-18%	-1%
CC(=O)Nc1cn(-c2ccccc2)nc1-c1ccccc1	i	0%
Cc1ccc2c(CN(C)Cc3ccc(Cl)cc3Cl)cc(=O)oc2c1	-7%	-6%
Cc1cc(CNC(=O)C2CCC(=O)N(CCc3ccc(Cl)cc3)C2)no1 (centres undefined)	-13%	-1%
COc1ccc(N2CC(NC(=O)CCCc3ccccc3)CC2=O)cc1 (centres undefined)	-12%	-7%
COc1cc(NC(=O)COC(=O)CCc2nc3ccccc3c(=O)[nH]2)cc(OC)c1	-19%	-14%

New compounds follow:
mol	Vaccinia mCherry	VACV Venus inh
COc1ccc(C/C(=N\OC(C)=O)c2ccc(OC)cc2)cc1	-24%	-21%
COc1cccc(CNC(=O)N2CCN(S(=O)(=O)c3ccc(Cl)cc3)CC2)c1	i	-3%
O=C1OC(=O)C2C1[C@@H]1CC[C@H]2O1 (some centres undefined)	-14%	-26%
COc1ccc(S(=O)(=O)N2CCCCCC2)cc1NC(=O)CCNC(=O)c1ccccc1Cl	i	-6%
CSC1=N/C(=C\c2ccccc2F)C(=O)S1	-11%	-9%
Cc1cc2nnc(SCC(=O)NC3CCCCC3)n2c(N)n1	i	-19%
Cc1ccc(NC(=O)C(C)N=C2NS(=O)(=O)c3ccccc32)cc1 (centres undefined)	-2%	-5%
COc1ccc(-c2ccc(C(=O)N3CCN(C)CC3)c3occc23)c(C)c1	-13%	-29%
O=C1/C(=C/c2ccc(F)cc2)Oc2cc(OC(=O)N3CCOCC3)ccc21	-10%	-7%
C=C1C(C)C2C(Cc3ccccc3)NC(=O)C23C(OC(C)=O)C=CC(C)(O)CC(C)CC=CC3C1O (centres undefined)	?	?

The list goes on.
mol	Vaccinia mCherry	VACV Venus inh
Cc1nc(SCC(=O)N2CCc3ccccc32)n[nH]1	.	-18%
O=C(CCc1nnc2ccc(NCc3ccccc3)nn12)NC1CCCCC1	i	-4%
O=C(NCc1ccc(F)cc1)C1CCN(S(=O)(=O)N2CCC3(CC2)OCCO3)CC1	i	-8%
Cn1cc(CNCc2cnc3ccccn23)c(-c2ccc(Oc3ccccc3)cc2)n1	?	-22%
Cc1cc(C)nc(N/N=C/c2ccccc2OCc2ccccc2)n1	-6%	-22%
CCN1CCN(CCNC(=O)c2ccc(CS(=O)(=O)c3ccccc3C)o2)CC1	1%	-6%
O=C(Cc1ccccc1F)Nc1ccc2c(c1)CCC2	i	-19%
CC(C)(C)NS(=O)(=O)c1ccc2nc(NC(=O)Cc3cccs3)sc2c1	.	?
CCOc1ccc(NC(=O)C(C)Sc2nc3ncccc3o2)cc1 (centres undefined)	6%	-7%
COc1cccc(-c2nn(-c3ccc(C)cc3)cc2C(=O)N2CCc3cc(OC)c(OC)cc3C2)c1	-20%	-30%

(next part)
mol	Vaccinia mCherry	VACV Venus inh
Cn1ccnc1C1CCCCN1Cc1nc(-c2ccc3c(c2)OCO3)no1 (centres undefined)	-5%	-3%
CN(CC(=O)Nc1ccc(F)cc1)C(=O)COc1ccc([N+](=O)[O-])cc1Cl	-19%	-10%
Cc1nc(NC(=O)CC(C)C)sc1-c1csc(Nc2ccc(Cl)cc2)n1	?	?
Cc1ccc(CS(=O)(=O)c2ccccc2-c2nnc(-c3ccc(Cl)cc3)o2)cc1	.	?
Cc1cc(C)n2nc(C(=O)Nc3ccc(S(=O)(=O)N4CCCCC4)cc3)nc2n1	.	-7%
O=C(c1ccc(S(=O)(=O)Nc2ccccc2Cl)cc1)N1CCOCC1	-3%	-14%
C[C@H]1CCCCO[C@@H](CN(C)S(=O)(=O)c2ccc(Cl)cc2)[C@@H](C)CN([C@@H](C)CO)C(=O)c2cc(NS(=O)(=O)c3ccccc3)ccc2O1	-21%	-27%
O=C(CSc1nc2c([nH]c3ccccc32)c(=O)n1-c1cccc(Cl)c1)c1ccccc1	-18%	-19%
COc1cc(-c2nnc(-c3ccc(S(=O)(=O)c4ccccc4)cc3)o2)cc(OC)c1OC	-10%	21%
CCN1CCN(S(=O)(=O)c2ccc(OC)c3ccccc23)CC1	-5%	-9%

Continued.
mol	Vaccinia mCherry	VACV Venus inh
Cc1nnc(-c2ccccc2)c[n+]1[O-]	-23%	-20%
C=CCOc1ccc(CN(C)C(=O)CN2C(=O)c3ccccc3C2=O)cc1	i	2%
CCOc1ccc(-c2cc(OC(=O)c3ccc(F)cc3)c3c(C)oc(C)c3c(=O)c2)cc1	12%	10%
Cc1cc(CNC(=O)COc2cc(F)ccc2[N+](=O)[O-])c2ccccc2n1	-15%	-20%
CC(C)(C)c1csc(NC(=O)Nc2ccccc2)n1	-17%	-22%
Cc1ccc(N2CCN(C(=O)CCS(=O)(=O)c3cc4c(cc3Cl)NC(=O)CO4)CC2)c(C)c1	?	-22%
O=C(CC(SCCO)c1ccc(F)cc1)c1ccco1 (centres undefined)	-4%	5%
CCC1=C(OC(=O)N(CC)CC)N2C(=O)OC(=NCC(=O)OC)[C@]2(Cc2ccccc2)[C@H]2C1=CC[C@H]1C(=O)NC(=O)[C@H]12	-13%	-2%
CC(C)Oc1ccc(C(=O)Nc2cc(S(=O)(=O)N3CCOCC3)ccc2N2CCOCC2)cc1	-13%	-29%
CCc1c(C)nc(N)nc1N1N=C1SCCOc1ccccc1	-10%	-16%

Reformatted with two lines to a compound: 5 of the compounds above
Second line of a record: Vaccinia mCherry	VACV Venus inh
- CC(C)Oc1ccc(C(=O)Nc2cc(S(=O)(=O)N3CCOCC3)ccc2N2CCOCC2)cc1
→ -13%	-29%
- CC(C)(C)c1csc(NC(=O)Nc2ccccc2)n1
→ -17%	-22%
- CCC1=C(OC(=O)N(CC)CC)N2C(=O)OC(=NCC(=O)OC)[C@]2(Cc2ccccc2)[C@H]2C1=CC[C@H]1C(=O)NC(=O)[C@H]12
→ -13%	-2%
- Cc1nnc(-c2ccccc2)c[n+]1[O-]
→ -23%	-20%
- CCOc1ccc(-c2cc(OC(=O)c3ccc(F)cc3)c3c(C)oc(C)c3c(=O)c2)cc1
→ 12%	10%

Later entries
mol	Vaccinia mCherry	VACV Venus inh
O=C1NC2=C(C(=O)CCC2)C(c2ccc(OC(F)F)cc2)N1 (centres undefined)	-18%	-7%
C/C(CC(=O)Nc1ccc(Cl)cc1Cl)=N\NC(=O)C(=O)NCCO	i	-12%
O=C(Cn1nnc(-c2cccc(C(F)(F)F)c2)n1)NC1CCCC1	-16%[1.46 µM]	-15%
NC(=O)c1ccsc1NC(=O)c1ccc(S(=O)(=O)N2CCCCC2)cc1	-11%	-25%
Cc1ccc(C(=O)Nc2cccc(-c3nc(CNC(=O)C4(C)CC4)c(C)o3)c2)s1	-13%	-15%
CC1=C(C(=O)N(C)C)CC(CC(=O)NC2CCCC2)C(=O)N1Cc1ccc(F)cc1 (centres undefined)	-13%	-9%
CCOC(=O)N1CCN(C(=O)CSc2ccc3nnc(CCNC(=O)c4ccccc4)n3n2)CC1	i	19%
CC(=O)c1cc2c(C)c(C(=O)c3ccccc3)oc2cc1O	-19%	-8%
O=C(Nc1cccc(C(F)(F)F)c1)C1Cc2c(-c3ccccc3Oc3ccccc3)ccnc2O1 (centres undefined)	11%	-2%
CCCC[n+]1ccn(-c2nc3ccccc3nc2[N-]S(=O)(=O)c2ccccc2)c1	-3%	-7%

Following part.
mol	Vaccinia mCherry	VACV Venus inh
CC1=C(c2ccc(C)cc2)S(=O)(=O)N=C1N1CCN(c2ccccc2)CC1	i	-18%
O=C(Nc1cccc(NC(=O)C2CC2)n1)C1CC1	3%	-5%
CCOc1cccc2cc(-c3nnc(NCc4ccco4)s3)c(=O)oc12	-33%	-24%
Cc1cccc(NC(=S)N2CCCCC2)c1	-7%	-7%
CCN(CC(=O)Nc1cccc(OC)c1)C(=O)c1cccc(S(=O)(=O)N2CCc3ccccc32)c1	-11%	-18%
CCCCC(=O)NC(=S)NNC(=O)c1ccc(Cl)cc1Cl	i	-12%
COc1ccc(C(=O)N2CCC(C(=O)Nc3ccc4c(c3)OCCO4)CC2)cc1	-12%	1%
CCOc1cc(C(=O)Nc2nnc3n2CCS3)cc(OCC)c1OCC	-4%	6%
CCOc1ccc(S(=O)(=O)NC(C)C)cc1C(N)=O	2%	1%
COc1ccccc1-n1c(=O)oc2ccc(Cl)cc2c1=O	.	13µM*

Continued:
mol	Vaccinia mCherry	VACV Venus inh
CCCCn1c(NCc2ccc(OC)cc2O)nc2ccccc21	-27%&-26%	-18%&-12%
CS(=O)(=O)c1ccc(CNC(=O)C2(C(F)(F)F)C/C(=C/CCO)CCCO2)cc1 (centres undefined)	-10%	-1%
O=C(Nc1nccs1)C1CCN(S(=O)(=O)c2ccc(F)cc2)CC1	-18%	-24%
Cn1nc(NC(=O)C(F)(F)F)c2ncc(-c3ccccc3)nc21	i	-10%
COc1ccc(/C=C/C(=O)c2ccc([N+](=O)[O-])o2)cc1	?	?
CC(C)(C)NC(=O)NC(=O)COC(=O)c1cccc(NS(=O)(=O)c2ccc(F)c(F)c2)c1	i	-27%
CCn1c2ccccc2c2cc(NC(=O)N3CCCCC3)ccc21	-24%	?
Cc1ccc(OCC(=O)Nc2c(Cl)ccc3nsnc23)cc1C	-7%	3%
O=[N+]([O-])c1ccc(C=CC=Cc2ccccc2)cc1	-3%	-1%
CCCCOc1ccc(S(=O)(=O)n2nc(C)c(S(=O)(=O)N3CCC(C)CC3)c2C)cc1	-9%	-6%

(further entries)
mol	Vaccinia mCherry	VACV Venus inh
Cc1ccc(Nc2nc(C)nc3c2oc2ccccc23)cc1	3%	-9%
COC1=CC(=O)O[C@@H](/C=C/c2ccccc2)C1	-14%	-7%
CC(C)[C@@H](NC(=O)OC(C)(C)C)c1cc(C(=O)c2c(-c3ccccc3)[nH]c3ccccc23)c(N)s1	?	?
CCCC(=O)OCC(=O)Nc1cc(C(C)(C)C)nn1-c1ccccc1	-9%	-6%
C=CCOc1ccccc1CNCCNC(=O)c1nonc1N	-5%	-13%
CC1CC(C)CN(CCCNC(=O)c2cc3c(=O)[nH]c4ccccc4c3n2C)C1 (centres undefined)	-10%	?
Cc1cccc(Nc2nc(N3CCCCC3)nc(N3CCCCC3)n2)c1	i	-23%
CCOC(=O)C1=CN(Cc2cccc(F)c2)S(=O)(=O)NC1c1ccc(F)c(Cl)c1 (centres undefined)	-1%	-30%
COc1cc(O)c(C(CCN2CCN(c3ccccc3)CC2)c2ccc3c(c2)OCO3)c(OC)c1 (centres undefined)	-12%	-6%
Cc1cc(C)cc(OCC(=O)N2N=C(c3cccnc3)CC2(O)C(F)(F)F)c1 (centres undefined)	?	-27%
O=C(O)c1cccc(N2C(=O)CSC2c2c(F)cccc2Cl)c1 (centres undefined)	-10%	-11%
